High-throughput results as filed in PubChem.
Ecoli rRNA inh: inhibits bacterial ribosomal RNA function over humanized ribosomes | GFP signal change (wild-type ribosome), % (test concentration not listed) | hit rate 1.6% among 350,000 | AID 720706 | E. coli WT GFP vs humanized-ribosome RFP mutants, fluorescence, 24 h; stronger effect = lower value; DMSO median 0, no signal -100;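 active = significant combined selectivity score with lowered wild-type GFP, culture density cut under 30%, mutant RFP and density less affected; inactive = any of these conditions unmet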; also: one replicate is shown; some compounds called inactive have numbers as strong as hits
T cruzi repl: T. cruzi replication inhibition; T. cruzi beta-gal in NIH3T3, luminescence, 90 h; inhibition, % (test concentration not listed); hit rate 1.4% among 300,000;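 active = mean inhibition across valid replicates above about 55%, limit read from the data; inconclusive = mean below that limit but half or more replicates reach it; inactive = mean below it, under half of replicates reach it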;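 also: signal also drops with host cell toxicity which is not excluded here; 0% = plate median of DMSO wells and 100% = zero luminescence signal; higher percent means less beta-gal luminescence so fewer parasites; stock transfer was 50 nL into about 50 µL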
Vif A3G: inhibitors of Vif binding to APOBEC3G peptide, primary screen, biochemical, TR-FRET, GST-Vif 1-94, biotin-A3G peptide, dose response retest (AID 1117319); TR-FRET GST-Vif / biotin-A3G peptide binding; higher % means a stronger effect; test concentration not given here; strong numbers were not always called active; inhibition, %, or IC50 in µM where a hit was titrated; hit rate 0.57% among 260,000;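 active = above the screen mean plus three standard deviations and confirmed in dose response; inconclusive = results disagree or hit not tested in dose response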;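 also: Vif residues 1-94 fused to GST binding biotinylated APOBEC3G peptide 110-148; 0% = full assay without inhibitor and 100% = GST in place of GST-Vif; retest series ran down from 100 µM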
AF4-AF9 inh: blocks AF4 peptide binding to human AF9. inhibition, % at 10 µM. AlphaScreen, biotin-AF4 peptide binding to FLAG-AF9. P42568. AID 651704. hit rate 0.47% among 350,000;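 active = every replicate reaching a set inhibition limit, whatever the replicate mean, cut at about 25% in these data; inconclusive = mean inhibition reaches that limit but some replicates miss it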;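 also: 0% = plate neutral control median and 100% = total signal loss; the record names both 10 and 1 µM as test concentration; the first replicate is given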
Target sequence (P42568 whole entry, looked up): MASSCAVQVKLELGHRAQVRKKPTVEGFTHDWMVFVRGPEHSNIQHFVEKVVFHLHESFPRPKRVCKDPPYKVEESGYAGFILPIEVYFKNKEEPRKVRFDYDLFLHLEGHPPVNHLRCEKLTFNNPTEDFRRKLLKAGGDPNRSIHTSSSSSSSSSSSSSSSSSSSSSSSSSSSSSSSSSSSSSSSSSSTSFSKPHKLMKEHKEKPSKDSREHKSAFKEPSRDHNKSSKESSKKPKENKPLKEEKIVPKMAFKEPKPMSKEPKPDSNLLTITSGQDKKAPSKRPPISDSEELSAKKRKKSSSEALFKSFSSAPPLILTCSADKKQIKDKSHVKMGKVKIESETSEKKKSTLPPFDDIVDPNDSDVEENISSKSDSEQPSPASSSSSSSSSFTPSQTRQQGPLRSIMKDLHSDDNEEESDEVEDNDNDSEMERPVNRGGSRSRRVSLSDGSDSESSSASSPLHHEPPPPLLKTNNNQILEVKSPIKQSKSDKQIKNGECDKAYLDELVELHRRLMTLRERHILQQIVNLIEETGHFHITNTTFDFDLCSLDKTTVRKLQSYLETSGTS
Calb FLC: C. albicans growth modulation with fluconazole | growth inhibition, % (no concentration beside the values) | C. albicans CaCi-2 (fluconazole-resistant clinical isolate) + fluconazole, Alamar Blue growth, 48 h | hit rate 0.57% among 300,000;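 active = most replicates above 75%; inconclusive = exactly half above 75%; inactive = most below 75%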;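 also: all wells also contain fluconazole at 8 µg/ml as a sub-toxic cotreatment; 0% = median of DMSO wells and 100% = median of geldanamycin control wells; wells of about 8 µL received 7.5 nL stock; the first replicate is given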
RanGTP-Imp inh: inhibitors of RanGTP-importin-beta interaction, primary screen, biochemical, FRET, CFP-Ran, YFP-importin-beta, homogeneous | hit rate 1.1% among 300,000 | inhibition, % (test concentration not listed) | cell-free CFP-Ran/YFP-importin-beta FRET ratio | AID 2216;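 active = most replicates above 15%; inconclusive = exactly half above 15%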;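 also: 0% = DMSO wells and 100% = Ran loaded with GDP instead of GTP; wells of about 40 µL received 100 nL stock; the first replicate is given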
A1 inh: inhibitors of the anti-apoptotic protein A1, read as caspase activation | MEF A1-2A-BIM cells, Caspase-Glo 3/7 luminescence, 3 h; percent of clofoctol response, vehicle zero | caspase activation, % (concentration not given with the values) | hit rate 0.066% among 330,000 | AID 2462;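 active = over half of replicate activation scores above 10%, or exactly half above 10 with the replicate mean above 10; inconclusive = replicate mean below 10 yet half the replicates above 10; inactive = over half of replicates below 10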;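 also: wells of about 30 µL received 50 nL stock; many hits fall short of the cut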
Beta cell apopt: beta cell apoptosis inhibition; protection from apoptosis, % (no concentration beside the values); INS-1E cytokine-induced death, ATP luminescence, 48 h; percent of positive-control rescue, neutral wells zero; hit rate 0.8% among 300,000;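 active = all replicates at 75% or more, or half of them and the mean; inconclusive = half reach 75% but not the mean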;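 also: 0% = cytokine-treated negative control wells and 100% = positive control rescue; higher means more ATP so stronger rescue from cytokine killing; wells of about 40 µL received 100 nL stock; the first replicate is given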
Ecoli rRNA inh OD600: recorded beside Ecoli rRNA inh, whose call it bears; OD600 change, %; measured here: OD600 growth;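 optical density of the mix in the first replicate; 0 = DMSO median and -100 = no signal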
Ecoli rRNA inh RFP: further read-out of Ecoli rRNA inh, marked with its call; RFP signal change, %; measured here: RFP humanized mutant strains;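 first replicate; 0 = DMSO median and -100 = no signal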
Starred values were filed as active, the others as inactive; u = inconclusive; x = no result given; & = joins results of further samples.

SMILES	Ecoli rRNA inh	Ecoli rRNA inh OD600	Ecoli rRNA inh RFP	T cruzi repl	Vif A3G	AF4-AF9 inh	Calb FLC	RanGTP-Imp inh	A1 inh	Beta cell apopt
Cc1ccc(CNS(=O)(=O)c2c(N)n(C)c(=O)n(C)c2=O)cc1	12	22	2.0	-3	x	-15	-2	-2.3	0.1	0
CCc1nc2sc3c(c2c(=O)n1CCO)CCC3	12	8	2.4	-8	x	1.9	3	-4.5	0.9	1
Cc1cccc(OCC(O)Cn2c(=N)n(CCN3CCCCC3)c3ccccc32)c1 (stereo unspecified)	x	x	x	27	-5%&-8%	x	3	0.2	0.8	17
CCOC(=O)C1(Cc2ccccc2C)CCCN(C(=O)c2ccnn2C)C1 (stereo unspecified)	-2	0	1.2	-9	0%	0.3	u	2.3	-0.1	-6
Cc1cccc(C(=O)Nc2nnc(S(=O)(=O)N3CCOCC3)s2)c1	-2	3	-1.3	-4	x	-4.8	-1	4.8	0.1	0
O=C(c1ccc2ccccc2c1)C1CCCN(C(=O)c2cccnc2)C1 (stereo unspecified)	-3	-21	-0.5	21	x	0.4	19	-1.5	1.8	-5
CCCCC1=NN(C(=O)c2cocc2C)C(O)(C(F)(F)F)C1 (stereo unspecified)	x	x	x	1	16%	x	-4	u	1.3	-1
O=C(OCc1ccccn1)c1ccc(COc2ccccc2Cl)o1	x	x	x	3	3%	x	-4	2.2	-5.0	-3
O=C(NCc1ccc(F)cc1)C(Cc1ccccc1)n1cccc1 (stereo unspecified)	-4	-5	-2.1	0	1%	-0.4	17	-2.6	-0.1	0
CCCCN1CC(=O)N2[C@H]3c4cc(Br)ccc4OC[C@@H]3[C@H](C(=O)OCC)[C@]2(C)C1=O	-18	-35	-16	x	x	1.0	x	x	-0.3	-4
Cc1sc2ncnc(N3CCC(C)CC3)c2c1C	x	x	x	-5	0%	x	1	u	-0.1	3
CCOC(=O)/C=C/c1ccc2oc3ccccc3c(=O)c2c1	3	-1	5.4	-20	x	2.7	-4	0.5	-5.7	0
O=C(CSc1nnc(CNC(=O)c2ccccc2)o1)NCc1ccc2c(c1)OCO2	2	1	-1.5	0	-8%	-2.0	4	0.3	-0.6	0
Cc1ccc2cc(CN(Cc3ccco3)C(=S)NCC3CCCO3)c(=O)[nH]c2c1C (stereo unspecified)	1	-5	-0.5	7	12%	4.5	10	0.6	-0.3	0
CCC(=O)NCCc1cc2ccc(C)c(C)c2[nH]c1=O	14	15	1.8	-2	-8%	-7.5	0	1.9	0.1	-2
O=c1cc(OCc2ccccc2)cc[nH]1	1	5	0.5	x	3.1µM*	75*	x	x	1.2	-6
Cc1ccc(C(=O)N/C(=C/c2ccc(Cl)cc2)C(=O)N2CCOCC2)cc1	-4	-1	-4.7	-15	x	-0.2	1	2.4	0.1	x
Cc1ccc(-c2nc(NCc3ccco3)c3ccccc3n2)cc1	-51	-74	-15	40	-2%	-4.2	28	-7.9	-1.4	7
O=S(=O)(NC1CCCCC1)c1ccc(S(=O)(=O)N2CCN3CCCC3C2)cc1 (stereo unspecified)	-5	-6	0.6	18	-1%	-41	-9	3.5	0.3	x
COc1ccc(CN(C(=O)c2snc(C(N)=O)c2N)C(C(=O)NC2CCCC2)c2cc(OC)ccc2OC)cc1 (stereo unspecified)	2	-6	6.0	14	x	8.0	11	1.7	0.2	-6
Cc1nc(N)sc1C(=O)N/N=C/c1ccc([N+](=O)[O-])cc1	17	7	2.1	-17	-4%	0.8	2	-2.7	-0.6	x
C/C(=N\N=C(N)N)c1ccc(Cl)cc1Cl	-12	-27	-9.4	25	18%	6.8	-20	u	0.0	5
COc1ccc(N2CCN(C(=O)COC(=O)c3ccc(C)o3)CC2)cc1	10	9	1.6	-2	2%	0.4	0	0.4	-0.3	x
Cc1cc(NC(=O)C(C)SCC(=O)OCc2c(Cl)cccc2Cl)no1 (stereo unspecified)	-2	2	4.6	-11	1%	0.1	1	1.7	-0.2	x
Cn1nnc(NC(=S)NC(=O)c2cc(Cl)ccc2Cl)n1	-4	2	-0.1	-21	x	0.9	3	-2.7	-0.6	4
CCN(CC)C(=O)CSc1nnc(-c2ccccc2)c(-c2ccccc2)n1	x	x	x	15	-13%	x	6	2.1	-1.5	-7
CCN(CC)c1ccc(NC(=O)c2cccnc2)c(C)c1	x	x	x	-15	10%	x	3	4.2	-0.3	-7
NC1=NC[C@H](Cc2ccc(O)cc2)N1CC1CCCCC1	4	2	2.4	-16	-2%	-31	10	1.4	0.9	3
Cc1csc(=O)n1CCC(=O)OCc1nnc(-c2ccc([N+](=O)[O-])cc2)o1	x	x	x	x	12%	1.1	x	x	0.7	0
Cc1cc(C)cc(NC(=O)Cn2nnc(C(=O)NCc3ccco3)c2N)c1	1	2	-0.5	2	0%	-0.3	-12	0.9	0.7	-9
CCOc1ccc(/C=C2\SC(=S)N(CC(=O)N(CCO)C(C)(C)C)C2=O)cc1	1	-2	1.8	-1	19%	-0.1	1	3.7	-0.3	-23
O=C(Nc1ccc(S(=O)(=O)N2CCOCC2)cc1)c1cccs1	x	x	x	-3	u	x	-14	3.4	0.8	5
Clc1ccc(OCCn2ccnc2)c2ccccc12	x	x	x	70*	-2%	x	101*	1.5	0.8	-6
COc1ccc(C[C@H]2CN3C(=NC[C@@H]3C)N2CCNC(=O)CCC2CCCCC2)cc1	-5	-20	8.3	-17	2%	2.7	-32	-0.2	-0.5	-6
CCOC(=O)c1cccc(NC(=S)NC(=O)c2cccnc2)c1	7	6	0.6	-13	-3%	-1.6	6	1.4	0.2	-8
Cc1ccc(SCc2ccc(C(=O)Nc3cccnc3)cc2)cc1	-8	-7	0.4	6	-6%	3.9	-4	0.1	-0.3	-9
O=C1CC(c2cccc(O)c2)Oc2ccccc21 (stereo unspecified)	x	x	x	x	13%	-1.2	x	x	-2.2	-3
Cc1ccc(C)c(NC(=O)CCN2CCN(CCO)CC2)c1	10	6	0.2	0	10%	5.3	-1	-3.7	-0.6	1
Cn1cc(C(=O)NCc2ccc(F)cc2)cn1	13	10	3.3	-5	-1%	-2.4	0	2.4	0.4	1
Cc1ccc(C)c(N(C(=O)c2csnn2)C(C(=O)NC2CCCC2)c2ccncc2)c1 (stereo unspecified)	6	8	-2.2	-4	x	u	2	-1.5	0.0	-13
Cc1cc(N2CCCC(C(=O)Nc3cccc4ccccc34)C2)n2ncnc2n1 (stereo unspecified)	-10	-2	1.5	9	-4%	-2.9	-14	u	-0.8	-5
O=C(NCC1CCCCC1)C1(CC2CC(c3cccc(Br)c3)=NO2)CCNCC1 (stereo unspecified)	-47	-68	-5.2	7	x	6.7	22	5.6	1.5	x
Cc1ccc(-c2ccc(CCC(=O)O)n2NC(=O)c2ccc([N+](=O)[O-])cc2)cc1	-2	0	-0.8	-4	x	0.6	-13	-1.8	0.0	-5
CCCc1cc(=O)n2nc(N3CCC(C(=O)N4CCN(c5cccc(OC)c5)CC4)CC3)sc2n1	4	2	3.9	3	x	-4.7	1	1.4	-1.1	3
COc1cc2c(cc1OC)CN(CC(=O)NC(=O)NC(C)(C)C)CC2	20	12	4.4	-4	8%	-2.0	-14	4.9	0.1	0
N#Cc1c(N)sc2c1CCN(CCc1ccccc1)C2	x	x	x	4	-4%	x	-7	46*	-0.5	6
CCc1cccc(NC(=O)CN(C)S(=O)(=O)c2cccc3nsnc23)c1	x	x	x	11	>100µM*	x	-28	0.9	-0.4	0
CC(=O)N/C(=C\c1ccccc1)C(=O)Nc1ccc(O)cc1	7	0	-1.4	1	x	8.3	30	2.9	-0.7	-2
O=C(NC1CCCCC1)c1cc(Cl)nc2ccccc12	x	x	x	-19	x	x	6	-0.7	0.3	-9
Cc1cc(S(=O)(=O)N2CCOCC2)ccc1OCC(=O)NCc1ccccn1	3	2	-1.7	-14	x	-3.7	-3	2.5	0.4	x
CC1=C(C(=O)OC2CCCCC2)C(c2ccc(C)o2)C2=C(CC(C)(C)CC2=O)N1 (stereo unspecified)	x	x	x	-1	5%	x	7	u	0.2	2
O=C(NNC(=S)Nc1ccc(Cl)cc1Cl)C1CC1	x	x	x	-24	-1%	x	2	9.6	-0.8	6
O=C(Nc1ccc2c(c1)OCCO2)C1CCN(C(=O)c2ccc(F)cc2)CC1	x	x	x	26	4%	x	0	4.0	0.2	7
Cc1ccc(NC(=O)C(c2ccc(Cl)cc2)N2CCOCC2)cc1 (stereo unspecified)	5	-10	2.2	9	x	-2.9	-3	-0.9	0.1	0
CCN1CCN(CC(O)COCc2ccccc2)CC1 (stereo unspecified)	x	x	x	-3	-3%	x	-5	u	0.3	2
O=C(O)C(Cc1ccccc1-c1ccccc1)C(=O)O	7	4	-0.1	-20	-7%	-3.8	8	-0.8	-0.6	-1
COc1ccc(N2CCN(C(=O)c3nc4nc(C)cc(C)n4n3)CC2)cc1	3	2	-1.3	-5	-8%	-0.1	-4	2.0	0.8	-3
CCN(Cc1ccccc1)Cc1nnnn1Cc1ccccc1	x	x	x	15	99%	x	3	0.4	0.6	5
CN(C)c1cnn(-c2ccccc2)c(=O)c1Cl	1	7	-6.6	-29	-3%	4.9	-1	-2.5	0.6	2
COc1cc(OC)c(C(=O)OCC(=O)Nc2ccc(S(=O)(=O)N3CCOCC3)cc2)cc1OC	-7	6	4.6	x	1%	2.0	x	x	-0.1	2
Next section
SMILES	Ecoli rRNA inh	Ecoli rRNA inh OD600	Ecoli rRNA inh RFP	T cruzi repl	Vif A3G	AF4-AF9 inh	Calb FLC	RanGTP-Imp inh	A1 inh	Beta cell apopt
Cc1ccc(CNC(=O)CS(=O)Cc2nc(-c3ccccc3Cl)oc2C)cc1 (stereo unspecified)	3	5	3.9	14	6%	-9.3	-2	-4.9	0.9	-9
COc1cc2cc(CN(CCc3ccccc3C)C(=S)NCCCN3CCOCC3)c(=O)[nH]c2cc1OC	-18	-20	15	4	2%	9.6	-5	1.3	0.2	0
COc1ccc(-n2cc(CNCCc3cscn3)c(-c3ccccc3Cl)n2)cc1	-42	-67	1.9	-10	9%	7.0	-29	-0.6	-0.6	4
O=C(Nc1ccc2nc(-c3cccnc3)[nH]c2c1)c1ccccc1F	x	x	x	9	-2%	x	10	2.3	-0.3	5
Cc1cc(NC(=O)COC(=O)c2ccc(S(=O)(=O)C(F)F)cc2)n(-c2ccccc2)n1	4	7	3.6	4	-6%	1.1	4	-1.2	0.2	-3
O=C(C(c1ccccc1)c1ccccc1)N1CCN(c2ccccn2)CC1	13	18	3.0	0	-1%	-0.3	17	0.8	1.3	-2
O=C(O)/C=C\C(=O)Nc1ccc(N2CCN(c3ccc(Cl)cc3)CC2)cc1	-5	0	60	-7	u	1.0	-39	1.5	-0.5	5

This is a subset (hit frequency here may not be typical).
